Assay outcomes as filed in PubChem.
Sfp inh = qHTS Assay for Inhibitors of Bacillus subtilis Sfp phosphopantetheinyl transferase (PPTase); 4'-phosphopantetheinyl transferase ffp (Bacillus subtilis), Q9F4F7; Biochemical Sfp PPTase activity, qHTS; Potency, µM, for inactives: max response, negative = inhibition, hits mostly inhibitors; 3.5% of 310,000 active; AID 1490, 2009; active = well fitted inhibition curve with a large enough effect; inconclusive = small, poorly fitted or top-dose-only effect, or another doubt; inactive = no such curve, though single readings can be large or run the other way;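 also: the enzyme is Sfp with the accession as filed and its product quenches rhodamine fluorescence; potency is read from the fitted curve at half-maximal effect; 0% = enzyme reaction without inhibitor and -100% = no enzyme wells; top concentration of the series not given in the record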
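After 15 min at room temperature with compound, 15 nM Sfp received 5 uM rhodamine-CoA plus 12.5 uM BHQ-2-ybbR (50 mM Hepes pH 7.6, 10 mM MgCl2). Rate came from the fluorescence difference over 30 min, ex 525/em 598 nm.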
TRPV1 PAM = HTS Assay for Compounds that Act as Potentiators of the Vanilloid Receptor 1 | AID 540277, 2011 | TRPV1-expressing cells, Fluo-8 calcium influx, capsaicin EC20 potentiation; host cell line not named in the record; control for the full effect not named in the record | Transient receptor potential cation channel subfamily V member 1 (Homo sapiens), Q8NER1 | potentiation, % at 8.33 µM | 0.02% of 320,000 active; active means potentiation above 80%; inconclusive means 30% to 80%; inactive means below 30%; also: 0% is about no effect
Target sequence (Q8NER1 whole entry, looked up): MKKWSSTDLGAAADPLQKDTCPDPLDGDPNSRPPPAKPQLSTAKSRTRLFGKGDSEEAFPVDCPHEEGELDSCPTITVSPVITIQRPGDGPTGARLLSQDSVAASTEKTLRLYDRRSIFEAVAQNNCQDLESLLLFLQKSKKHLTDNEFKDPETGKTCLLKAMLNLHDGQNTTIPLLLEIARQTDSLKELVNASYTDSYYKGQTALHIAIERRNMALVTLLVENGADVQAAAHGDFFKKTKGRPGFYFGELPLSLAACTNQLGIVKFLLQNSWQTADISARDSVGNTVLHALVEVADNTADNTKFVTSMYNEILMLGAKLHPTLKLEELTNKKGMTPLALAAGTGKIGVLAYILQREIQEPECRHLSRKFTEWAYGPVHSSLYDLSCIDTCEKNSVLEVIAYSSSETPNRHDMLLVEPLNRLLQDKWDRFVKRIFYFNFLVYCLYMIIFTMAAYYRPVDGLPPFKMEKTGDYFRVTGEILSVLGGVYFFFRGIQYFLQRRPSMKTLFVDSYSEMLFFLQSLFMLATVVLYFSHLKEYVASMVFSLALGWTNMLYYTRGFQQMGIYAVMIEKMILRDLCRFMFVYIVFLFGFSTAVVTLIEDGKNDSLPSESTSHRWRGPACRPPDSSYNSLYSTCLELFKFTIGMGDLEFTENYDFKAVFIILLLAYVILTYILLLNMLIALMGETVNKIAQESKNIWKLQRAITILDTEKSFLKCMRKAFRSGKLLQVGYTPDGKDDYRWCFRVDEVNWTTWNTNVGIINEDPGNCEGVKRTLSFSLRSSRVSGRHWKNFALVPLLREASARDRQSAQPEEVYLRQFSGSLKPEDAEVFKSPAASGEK
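Fluo-8 calcium influx in TRPV1-expressing cells, kinetic read (ex 480/em 520 nm). Compound added and read 3 min for agonist activity, followed by capsaicin at EC20 final and 2 min further read for enhancement.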
ClpP mod = qHTS Assay for Activators of ClpP; 1.9% of 340,000 active; purified B. subtilis ClpP, FRET peptide cleavage, 20 min; Potency, µM (titrated, usually from 57.5 µM), for inactives: at the top dose activity change, negative = active; ATP-dependent Clp protease proteolytic subunit (Bacillus subtilis (strain 168)), P80244; active = well fitted falling curve with a large enough effect; inconclusive = small, poorly fitted or top-dose-only effect; inactive = no such curve, though single readings can be large or run the other way; also: potency is read from the fitted curve at half-maximal effect; the source files actives as falling curves though it sought activators and does not explain the sign; nearly all actives have a fitted effect of over 65% in size; many hits overshoot -100%
Target sequence (P80244 whole entry, looked up): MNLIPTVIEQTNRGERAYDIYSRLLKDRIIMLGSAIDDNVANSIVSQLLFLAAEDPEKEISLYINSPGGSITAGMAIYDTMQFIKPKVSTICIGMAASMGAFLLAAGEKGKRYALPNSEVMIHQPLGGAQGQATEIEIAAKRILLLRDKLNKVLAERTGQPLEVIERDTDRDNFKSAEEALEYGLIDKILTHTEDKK
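Buffer: 100 mM Tris/HCl pH8, 100 mM KCl, 0.05% low protease BSA, 2.5% glycerol, 0.01% Tween-20. ClpP 10 microg/mL final; 20 min RT; delta FRET normalized to ADEP and DMSO controls.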
gsp agonist = qHTS for Agonist of gsp, the Etiologic Mutation Responsible for Fibrous Dysplasia/McCune-Albright Syndrome: qHTS; gsp mutant cells, cAMP HTRF, 30 min; control for the full effect not named in the record; Potency, µM (series often up to 76.9 µM), without a hit: at the top dose activation (cAMP increase), hits mostly activators; 0.13% of 340,000 active; AID 624287, 2012; active = well fitted activation curve with a large enough effect; inconclusive = small, poorly fitted or top-dose-only effect, or another doubt; inactive = no such curve, though single readings can be large or run the other way; cell line not stated here;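 also: phosphodiesterase inhibitor Ro 20-1724 added with compounds to block cAMP breakdown; potency is read from the fitted curve at half-maximal effect; nearly all actives have a fitted effect of over 60% in size; about a fifth of the inactives were tested at one dose only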
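Cells in DMEM/10% FBS with G418 were pretreated with compounds in DMSO plus […] (300 uM stock) for 30 min at 37C. cAMP was measured by HTRF (cAMP-d2 plus anti-cAMP antibody-K) after 30 min at room temperature.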
Menin MLL FP FL = qHTS Assay for Inhibitors Targeting the Menin-MLL Interaction in MLL Related Leukemias: Competition With Fluorescein Labeled MLL-derived Peptide. Fluorescence polarization, fluorescein-MLL peptide displacement from menin. FP activity change, % at 61.4 µM. 290,000 tested, under 10 active; inconclusive = falling polarisation curve, or a change in total fluorescence; inactive = total fluorescence flat and polarisation flat or rising; no compound was filed as active; the % refers to the polarisation; negative = inhibition;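 also: % of control where 0% means no effect; inhibitors lower the polarisation; unlabelled MLL peptide was the positive control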
gsp antag = qHTS for Antagonists of gsp, the Etiologic Mutation Responsible for Fibrous Dysplasia/McCune-Albright Syndrome: qHTS; gsp-mutant cells, cAMP HTRF, 30 min; control for the full effect not named in the record; Potency, µM (highest dose often 76.9 µM), without a hit: at the top dose activity change, negative = inhibition, most hits filed as inhibitors; 0.4% of 340,000 active; AID 624288, 2012; active = falling curve of any shape with a large fitted effect; inconclusive = falling curve, mostly with a smaller effect; inactive = flat or rising curve; cell line not stated here;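 also: intracellular cAMP measured with PDE inhibitor Ro 20-1724 present during compound exposure; potency is read from the fitted curve at half-maximal effect; % is scaled to controls: 0 for no effect and ±100 for the full control effect; nearly all actives have a fitted effect of over 65% in size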
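G418-selected cells were plated in DMEM/10% FBS for 16-24 h at 37C, then treated with compounds plus the PDE inhibitor […] (300 uM solution added) for 30 min at 37C. Intracellular cAMP was measured by HTRF after 30 min lysis at room temperature.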
CtBP-E1A blk = qHTS Assay for Inhibitors of the CtBP/E1A Interaction; CtBP / adenovirus E1A interaction (AlphaScreen); AlphaScreen GST-E1A/His-CtBP binding, 1536-well; active compounds read low; control for the full effect not named in the record; activity change, % (no concentration beside the values); 0.49% of 340,000 active; AID 651724, 2012; in the data active means activity change below about -65%; inconclusive means about -30% to -65%; inactive means above about -30%; also: % is scaled to controls: 0 for no effect and ±100 for the full control effect
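GST-E1A and His-tagged CtBP (125 nM each as 5X stock) were preincubated with pin-transferred compound for 2 h at 37 °C in the dark, then glutathione donor and nickel acceptor beads were added for 1 h before AlphaScreen reading.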
* marks the source's active call; other numbers are inactive results; ? = inconclusive; / = no result given; & = joins results of further samples; ! = not active in a repeat; [ ] = remark or other dose.

SMILES	Sfp inh	TRPV1 PAM	ClpP mod	gsp agonist	Menin MLL FP FL	gsp antag	CtBP-E1A blk
O=c1[nH]c(=S)n(-c2cccc(C(F)(F)F)c2)c(O)c1C=NCCN1CCNCC1	3%	?	/	-7%	0.7	5%	4
CS(=O)(=O)N(CC(=O)NCc1ccccc1Cl)C1CCCCC1	1%	?	0.6%	-34%[inhibitor]	-0.6	1%	2
COc1cc(COCC(O)CN2CCN(Cc3ccccc3)CC2)cc(OC)c1OC (centres undefined)	12%	7	0.5%	-3%	0.3	-17%	7
O=C(O)CCSCC(=O)c1ccc2c(c1)OCCO2	45µM*	3	-8.1%	-62%[inhibitor]	-0.8	4%	-3
Cc1c(OCC(=O)N[C@@H](Cc2ccccc2)C(=O)O)ccc2c1oc(=O)c1ccccc12	-1%	5	4.7%	/	-0.6	4%	-10
COc1c(CC=C(C)C)cc(C2CC(=O)c3c(O)cc(O)cc3O2)c(CC=C(C)C)c1O (centres undefined)	/	/	-1.4%	-1%	/	?	5
Cc1ccc(NC(=O)CSc2nnc(Cc3cccn3C)n2-c2ccc(F)cc2)c(C)c1	?	?	15%	13%	1.3	50µM*	0
O=C(O)CCCN1C(=O)C2C3CC(C2C1=O)C1C(c2ccccc2)c2sc(=O)[nH]c2SC31 (centres undefined)	?	4	1.4%	-42%[inhibitor]	0.2	3%	/
Cc1cc(C)cc(NC(=O)Cn2cc3c(n2)CCCCC3)c1	6%	-13	/	/	3.8	/	/
Cc1ccc(C)c(OCC(=O)NCC2COc3ccccc3O2)c1 (centres undefined)	/	-9	0.9%	-72%	/	2%	9
Cc1ccc(N=CC=C2OC(C)(C)C(C)(C)O2)c(C)c1	-4%	22	0.4%	-13%[15.4 µM]	/	-11%	8
COc1ccc(Cl)cc1N(CC(=O)NCC(C)C)S(=O)(=O)c1ccc(C)c([N+](=O)[O-])c1	5%	3	0.5%	7%[15.4 µM]	-0.1	12%	1
C/C(=N/NC(=O)CN1CCN(S(=O)(=O)c2ccc(Br)cc2)CC1)c1ccncc1	14%	-3	-1.0%	-1%	1.3	2%	6
CCOC(=O)N1CCC(NC(=O)CS(=O)(=O)Cc2nc(-c3ccc(C)cc3)oc2C)CC1	7%	5	-5.1%	-15%	-1.4	-8%	-3
COc1cccc(C2/C(=C(\O)c3ccc(OC)c(OC)c3)C(=O)C(=O)N2c2cc(C)on2)c1 (centres undefined)	-13%	2	-0.6%	?	3.1	17%	1
Cc1nc(C)n(CC(=O)N2CCCC(C(=O)c3ccc(C(F)(F)F)cc3)C2)n1 (centres undefined)	10%	-4	/	-4%[15.4 µM]	0.3	6%	3
Cc1ccnc2nc(C(=O)NCc3cccs3)nn12	-3%	-14	6.8%	28%	0.8	6%	-5
CSc1nsc(SCC(=O)Nc2ccc3c(c2)OCCO3)n1	6%	24	-1.6%	17%	2.0	-21%	-2
C=CCNc1nc(NCCO)nc(N2CCCC2)n1	6%	?	-1.7%	16%	4.4	12%	8
Cn1c2c(c(=O)n(C)c1=O)C(c1cccc([N+](=O)[O-])c1)Nc1ccccc1O2 (centres undefined)	12%	0	-2.1%	15%	3.6	11%	16
COc1cc(/C=C/C(=O)OCC(=O)N2CC(C)OC(C)C2)ccc1OCC#N (centres undefined)	/	/	4.5%	-1%	/	/	1
COC(=O)c1[nH]c2ccc(F)cc2c1NS(=O)(=O)c1ccc(OC)cc1	5%	10	?	32%	-2.0	26%	-2
Cc1ccc(/C=C(\NC(=O)c2ccccc2)C(=O)OCc2ccccc2)cc1	-5%	9	3.2%	-2%	9.1	-30%	1
O=C(Cc1ccccc1)Nc1nccs1	0%	12	1.2%	-3%	3.9	2%	/
O=C(Cn1cc([N+](=O)[O-])ccc1=O)NC1CCCCC1	/	-2	-1.4%	-12%	/	13%	-4
Cc1ccc2c(c1)c1nnc(SCC(=O)Nc3ccccc3C(F)(F)F)nc1n2CC(=O)O	10%	11	/	-3%[15.4 µM]	-2.1	5%	0
N#Cc1c(N2CCOCC2)nc(N2CCCCC2)c2c1CCN(C1CCCCC1)C2	2%	-5	-12%	-1%	3.3	1%	5
CCC(=O)NCCN1CCN(C(=O)CC)CC1	4%	8	0.0%	-9%	0.3	-3%	-2
C/C(=N\NC(N)=O)c1ccccc1	14%	-16	/	-10%[15.4 µM]	6.9	/	-10
CN(C)CCN=Cc1c(O)n(Cc2ccc3c(c2)OCO3)c(=O)c2ccccc12	7%	3	/	8%[15.4 µM]	-22	/	24
Cc1c(Cl)cccc1NC(=S)Nc1ccccn1	13%	14	/	-4%[15.4 µM]	3.9	13%	19
O=S(=O)(Nc1ccc(N2CCOCC2)cc1)c1ccccc1	6%	-1	1.2%	-29%	-6.4	9%	8
O=C(OCC(=O)N1c2ccccc2Sc2ccccc21)c1cccnc1	15%	-1	1.0%	?	1.3	-8%	/
O=C(NC1CCCc2ccccc21)c1ccccc1 (centres undefined)	-6%	-13	-2.8%	-33%[inhibitor]	/	5%	-4
CCCCCC(=O)Oc1cccc(N2C(=O)C3CCCCC3C2=O)c1 (centres undefined)	7%	-8	/	-6%[15.4 µM]	-5.3	0%	/
CN1CC(=O)N2C(c3cccc([N+](=O)[O-])c3)c3[nH]c4ccccc4c3C[C@H]2C1=O (some centres undefined)	9%	-14	-0.2%	-2%	5.5	6%	0
CCOP(=O)(c1ccc(N(C)C)cc1)C(O)c1cccnc1 (centres undefined)	16%	3	/	10%[15.4 µM]	2.7	-8%	-2
O=C(O)CCCCCNC(=O)c1cccc(Br)c1	3%	-12	3.2%	27%	-5.5	3%	8
O=C1C=C(N2CCN(C(=O)c3ccccc3)CC2)C2(CCCCC2)O1	2%	6	-0.1%	-33%[inhibitor]	-0.4	-20%	7
CC(=O)N=c1c(C#N)cc2c(=O)n3ccccc3nc2n1Cc1ccccc1	-1%	4	?	?	6.3	-6%	3
Cc1ccc(S(=O)(=O)N(CC(=O)NC2CCCCCC2)c2ccccc2F)cc1	-2%	-14	-3.6%	2%	-2.4	5%	-1
Cc1cccn2c(=O)c3cc(C(=O)NC4CCCC4)sc3nc12	-5%	28	3.1%	2%	/	1%	-3
CCc1ccc(C(=O)C[n+]2cccc3cc(OC)ccc32)cc1	9%	-13	1.6%	13%	-0.2	15%	0
COc1ccc(CC(=O)Nc2ccc(/C(C)=N/NC(=O)c3ccc(OC)cc3OC)cc2)cc1	-1%	1	-13%	-25%	6.4	-8%	2
CCSc1nc2ccccc2n1C(=O)/C=C/c1ccc(OC)c(OC)c1	56µM*	5	14µM*	6%	1.6	-5%	-22
O=C(CC(=O)NCc1ccc(Cl)cc1)NCc1ccccc1	-1%	-16	-1.3%	13%	-5.3	6%	2
O=C(O)c1cc(O)c2c(c1)C(=O)c1cccc(O)c1C2=O	56µM*!	1	2.0%	/	?	-11%	-84*
Cn1c(N)c(C(=O)CSc2nn(-c3ccc(F)cc3)c(=S)s2)c(=O)n(C)c1=O	/	13	-2.6%	?	/	14%	-2
Cc1cccc(C)c1NC(=O)C1CCN(C(=O)c2cccs2)CC1	22%	8	/	?	5.5	4%	6
COC(=O)CC1COc2ccccc2N1C(=O)c1ccc(C(C)(C)C)cc1 (centres undefined)	5%	2	-1.1%	23%	1.0	-31%	9
CC1CCN(S(=O)(=O)c2nnc(NC(=O)c3cccc(Cl)c3)s2)CC1	16%	0	-12%&-12%	?	4.1	?	4
O=C(CSc1nnc(CNC(=O)c2c(F)cccc2F)o1)NCc1ccccc1Cl	9%	2	-2.9%	22%	-0.8	6%	2
O=C(O)C1Cc2ccccc2CN1S(=O)(=O)c1ccc(Cl)cc1 (centres undefined)	26%	0	/	-13%[15.4 µM]	-0.6	/	5
COc1ccc(CNC(=O)C(c2cccs2)N(Cc2ccco2)C(=O)Cc2cccs2)cc1 (centres undefined)	-55%	-6	1.1%	-7%	7.9	?	-5
Cc1ccc(CNC(=O)CN2C(=O)COc3ccc(S(=O)(=O)N4CCC(C)CC4)cc32)o1	14%	2	0.3%	-1%	2.4	-4%	4
COc1ccc(NC2(c3ccccc3)OC(=O)c3ccccc32)cc1 (centres undefined)	-10%	4	/	8%[15.4 µM]	0.2	/	-2
Cc1nc(CNC(=O)c2ccccc2OC2CCN(S(C)(=O)=O)CC2)cs1	-2%	-8	-1.5%	3%	-5.0	0%	5
CC1(C)C(=O)Nc2ccccc2N1C(=O)COC(=O)c1cc(Cl)cc(Cl)c1	/	/	0.5%	8%	/	-16%	-1
CCN(CC)C(=O)CSc1nnc(-c2cc(-c3ccc(Cl)cc3)nc3ccccc23)o1	-15%	11	-1.6%	-5%[15.4 µM]	7.1	3%	-19
O=Cc1ccc(-n2cncn2)cc1	7%	3	/	-6%[15.4 µM]	5.6	11%	3

The list goes on:
SMILES	Sfp inh	TRPV1 PAM	ClpP mod	gsp agonist	Menin MLL FP FL	gsp antag	CtBP-E1A blk
CCN(CC(=O)NCc1ccc(Cl)cc1)C(=O)Cc1ccccc1[N+](=O)[O-]	3%	28	-0.1%	9%	/	-2%	-1
COc1cc(C(C[N+](=O)[O-])c2c(-c3ccccc3)cc3ccccn23)cc(OC)c1OC (centres undefined)	56µM*	26	14%	?	0.1	4%	-6
CCOC(=O)c1sc2ncnc(Nc3cccc(C(=O)O)c3)c2c1C	16%	1	-5.9%	?	-1.4	-11%	1
COc1ccc(CCNC(=O)C2CC3Cn4c(nc5cc(C)c(C)cc54)C3N2C)cc1 (centres undefined)	1%	-11	0.4%	/	0.9	?	0
